Assay outcomes: PubChem BioAssay, National Center for Advancing Translational Sciences (NCATS)
VDR inhibitor: vitamin D3 receptor (human) inhibition | AID 504847 | 400,000 compounds, 0.93% hits | P11473 | VDR-SRC2-3 peptide fluorescence polarization, 2 h | Potency, µM, for the others: max response, negative = inhibition, actives largely listed as inhibitors; active means well fitted inhibition curve with a large enough effect; inconclusive means small, poorly fitted or top-dose-only effect, or another doubt; inactive means no such curve, though single readings can be large or run the other way; further: series mostly up to about 120 µM
Target sequence (P11473 whole entry, looked up): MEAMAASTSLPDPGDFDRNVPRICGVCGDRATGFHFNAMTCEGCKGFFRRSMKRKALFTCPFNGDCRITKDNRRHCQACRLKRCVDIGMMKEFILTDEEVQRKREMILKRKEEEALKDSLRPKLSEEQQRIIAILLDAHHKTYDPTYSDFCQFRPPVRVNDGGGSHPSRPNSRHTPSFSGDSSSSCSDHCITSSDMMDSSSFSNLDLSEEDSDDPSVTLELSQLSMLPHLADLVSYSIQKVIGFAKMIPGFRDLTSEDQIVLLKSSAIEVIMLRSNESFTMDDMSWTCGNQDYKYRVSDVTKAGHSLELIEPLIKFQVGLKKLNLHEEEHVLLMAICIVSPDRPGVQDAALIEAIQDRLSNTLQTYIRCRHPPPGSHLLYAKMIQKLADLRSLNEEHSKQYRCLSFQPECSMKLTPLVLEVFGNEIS
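Fluorescence polarization assay measuring small-molecule disruption of VDR binding to the coregulator peptide SRC2-3. Compounds were pin-transferred (23 nl) into the reagent mix and incubated 2 h at room temperature before reading.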
* marks the source's active call; other numbers are inactive results; ? = inconclusive; & = joins results of further samples. On the % scale 0 is the no-effect control and ±100 the full control effect; potency means the concentration at half of the fitted maximal effect.

SMILES	VDR inhibitor
O=C(NCc1ccccc1)C1=C[C@H](c2ccc3c(c2)OCO3)C[C@H](OCc2ccc(CO)cc2)O1	-17%
c1ccc(-c2ccccc2OCCOCCN2CCNCC2)cc1	-11%
COc1ccc(NC(=O)CSc2nc3c(c(-c4cccs4)c2C#N)CN(C)CC3)cc1OC	?
O=C(NC1CCCCC1)C1CC(=O)N(CCc2ccc(F)cc2)C1 (configuration not stated)	0%
O=C(c1ccco1)N1CCN(c2cc(N3CCOCC3)c(F)cc2[N+](=O)[O-])CC1	-9%
CCc1nc(NCC2CCCO2)c2oc3ccccc3c2n1 (configuration not stated)	-2%
Cc1cc(C)c(C#N)c(SCC(O)CS(=O)(=O)Cc2ccccc2)n1 (configuration not stated)	3%
O=C(Nc1ccc(S(=O)(=O)Nc2nccs2)cc1)c1cccc(N2C(=O)c3ccccc3C2=O)c1	-5%
CCCCC/C=C\C[C@H](O)/C=C/c1cccc(C[C@H](O)CCCCO)n1	8%
COc1ccc(OC)c(C(c2nnnn2Cc2ccccc2)N2CCN(C3CCCCC3)CC2)c1 (configuration not stated)	5%
CC(=O)c1ccc(NC(=O)C(C)OC(=O)c2ccc(Br)o2)cc1 (configuration not stated)	-4%
CNC(=O)CSc1nnc(-c2cc(C)cc(C)c2)o1	2%
CCn1c(=O)cc(OCC(=O)NCc2ccco2)c2ccccc21	8%
O=C(/C=C/c1ccccc1)Oc1coc(CSc2ncccn2)cc1=O	-3%
COc1ccccc1C(=O)NCCCNC(=O)c1ccccn1	-9%
CCCC(=O)Nc1nc2nc(-c3ccccc3)cc(-c3ccccc3)n2n1	-10%
Cc1cc(NC(=O)CSc2nnc(C)n2C)no1	18%
Cc1ccc(NC(=O)N2CCN(C(=O)c3ccco3)CC2)cc1Cl	-3%
Cc1nn(-c2ccccc2)c(C)c1C(=O)OCC(=O)NC(=O)NC1CCCCC1	-17%
Cc1sc2ncnc(Nc3ccccc3)c2c1C	-11%
CCc1cc(=O)oc2cc(C)cc(OCC(=O)NCCc3c[nH]c4ccccc34)c12	5%
COc1ccc2nc(NC(=O)CCc3ccc(OC)c(OC)c3)sc2c1	?
CCOC(=O)N1CCN(CC(=O)Nc2nnc(C(F)(F)F)s2)CC1	0%
CC(=O)Nc1ccc(S(=O)(=O)N(CC(=O)O)Cc2ccccc2)cc1	3%
CCC(=O)Nc1c(C#N)c2nc3ccccc3nc2n1-c1ccc(C)cc1	-10%

Reprinted from the part before: three entries, followed by the next part.
SMILES	VDR inhibitor
CCOC(=O)N1CCN(CC(=O)Nc2nnc(C(F)(F)F)s2)CC1	0%
CC(=O)Nc1ccc(S(=O)(=O)N(CC(=O)O)Cc2ccccc2)cc1	3%
CCC(=O)Nc1c(C#N)c2nc3ccccc3nc2n1-c1ccc(C)cc1	-10%
CC[n+]1ccccc1/C=C1\Sc2ccc(C)cc2N1C	-11%
Cc1ccccc1N1CCN(C(=S)c2ccc(-c3cccc([N+](=O)[O-])c3)o2)CC1	8%
CCOC(=O)Nc1ccc2c(c1)N(CCCN(C)C)c1ccccc1CC2	2%
CCOCCCNC(=O)CCNS(=O)(=O)c1ccc(C)cc1	20%
O=C(N/N=C/c1ccccn1)c1cc(-c2ccc(Br)s2)[nH]n1	16%
C[C@@H]1C=CC(=O)O[C@@H]1c1ccc(Cl)cc1	-19%
CCOC(=O)COc1ccc2c(c1)C(=O)CC(C)(C)O2	13%
O=C(N/N=C/C=C/c1ccc(Br)cc1)C(O)c1ccccc1 (configuration not stated)	-10%
Cc1onc(-c2ccccc2Cl)c1C(=O)Oc1cc(F)cc(F)c1	-6%
COc1ccc(CNC(=O)C(C)n2nc(C)c3c(C)n(-c4ccc(C)cc4)nc3c2=O)cc1 (configuration not stated)	?
C=CCc1c(C)nc2nc(SCC(=O)Nc3ccccc3CC)nn2c1C	11%
Cc1cc(C)nc(N(C#N)C(C)C(=O)N(C)C)n1 (configuration not stated)	-23%
CCNc1ccc(C(=O)N/N=C/c2c(C)nn(-c3ccccc3)c2N2CCCC2)cc1[N+](=O)[O-]	-27%
COc1ccc2c(=O)c3c(=O)n(Cc4ccco4)c(-c4ccc(C)cc4)nc3oc2c1	-23%
O=C(O)CC(NC(=O)CCc1ccccc1)c1ccc(Cl)cc1 (configuration not stated)	-4%
CN(Cc1ccccc1)Cc1nc2c(c(=O)n(C)c(=O)n2C)n1CCc1ccccc1	12%
Cc1nn(C)c(Cl)c1CN1CCN(C2CCCC2)C(CCO)C1 (configuration not stated)	-3%
C=CCNC(=S)Nc1cc(S(=O)(=O)N2CCOCC2)ccc1-n1cncn1	-19%
CCOc1ccc(-n2c(C)cc(/C=N/NC(=O)C(N)=O)c2C)cc1	9%
O=C(NCc1ccc(Cl)cc1)c1cccc(NC(=O)c2ccccc2)c1	-17%
CCOC(=O)c1ccccc1NC(=O)CC1SC(=NC)N(C)C1=O (configuration not stated)	8%
O=C(Nc1nc2ccc(S(=O)(=O)N3CCCC3)cc2s1)c1cccc(F)c1	5%
Cc1ccc(C)c(SCC(=O)Nc2oc(C)c3c(C)n[nH]c(=O)c23)c1	-12%
O=S(=O)(c1ccc(Br)cc1)c1nc(-c2cccs2)oc1SCc1ccc(F)cc1	-2%
CCCn1c(SCC(=O)N2CCc3ccccc32)nnc1-c1ccco1	11%

Continuation.
SMILES	VDR inhibitor
CS(=O)(=O)N(CC(=O)NCc1ccncc1)c1cc(Cl)cc(Cl)c1	-7%
Cc1cccc(C)c1-n1ncc(C(=O)Nc2ccc3c(c2)OCCO3)c1C1CCN(C(=O)OC(C)(C)C)CC1	4%
COc1c(C(=O)Nc2ccc3[nH]c(=O)[nH]c3c2)cc2ccccc2c1Br	-3%
CCCc1nnc(NC(=O)c2cn(CC)c3cc(N4CCN(C)CC4)c(F)cc3c2=O)s1	7%
O=C(NCc1cccs1)c1cccnc1SCCS(=O)(=O)c1ccc(C(F)(F)F)cn1	-15%
Cc1ccc(NC(=S)NCCSc2ccc(Cl)cc2)cc1	-3%
CCOC(=O)c1sc(NC(=O)c2ccc(S(=O)(=O)N3CCOCC3)cc2)cc1C	12%
CSc1sc(-c2nnc(SCC(=O)Nc3ccccc3)n2C)c2c1C=CCC2	-18%
O=C(COc1ccc(F)cc1)Nc1ccc2nc(SCCOc3ccccc3)sc2c1	-6%
COc1ccc(NC(=O)CC2C(=O)Nc3ccccc3N2CC(=O)N2CCCC2)cc1 (configuration not stated)	-4%
COc1ccc(N2C(=O)CS(=O)(=O)C23C(=O)N(Cc2ccc(F)cc2)c2ccc(C)cc23)cc1 (configuration not stated)	18%
CCOC(=O)CC12CN3CN(C1)CC(CC(=O)OCC)(C3)C2=O	2%
O=C1NCC(c2ccccc2)C1C(=O)N/N=C/c1ccc(Cl)s1 (configuration not stated)	5%
CSc1nnc(-c2sc3cc(Cl)ccc3c2Cl)n1C	1%
COC(=O)C(Cc1ccccc1)NC(=O)CNC(=O)c1ccc(Br)cc1 (configuration not stated)	-19%
Cc1ccc(S(=O)(=O)NC(CC(C)C)C(=O)N2CCOCCOCCOCCOCC2)cc1 (configuration not stated)	0%
COc1ccc(CC(=O)NC2CC(C)(C)NC(C)(C)C2)cc1	8%
COc1cccc(NC(=O)NC2(C(=O)N3CCN(C)CC3)CCCCC2)c1	5%
Cc1ccc(NC(=O)C2CCCN2S(=O)(=O)c2cccc3nsnc23)c(Br)c1 (configuration not stated)	-2%
Cc1csc(SC(C)C(=O)Nc2ccc(S(=O)(=O)N3CCCC3)cc2)n1 (configuration not stated)	2%
O=C(OCc1nc2ccccc2s1)c1cccc(S(=O)(=O)N2CCOCC2)c1	-4%
Cc1cccc(C)c1NC(=O)c1cc(S(=O)(=O)N2CCCc3ccccc32)ccc1F	4%
CCCc1ccc(-c2cc(NC(=O)CSc3n[nH]c(N)n3)n(-c3ccccc3)n2)cc1	-2%
O=C(Cn1cc([N+](=O)[O-])ccc1=O)Nc1ccc2c(c1)OCO2	-2%
Nc1nc2c(ncn2[C@@H]2O[C@H](CO)[C@@H](O)[C@H]2O)c(=O)[nH]1	3%

Other structures follow:
SMILES	VDR inhibitor
Cc1ccc2cc(CN(CC3CCCO3)C(=S)NCc3ccco3)c(=O)[nH]c2c1 (configuration not stated)	-18%
CCn1c2c(c3ccc(OC)cc31)CCCC2=O	7%
Cc1ccc(NC(=O)C(Cc2ccccc2)NS(=O)(=O)c2cccc3nsnc23)c(C)c1 (configuration not stated)	-10%
CCCCc1ccc(NC(=S)N2CCCC(C)C2)cc1 (configuration not stated)	-1%
CN(C)c1ccc(/C=N/NC(=O)c2nnn(-c3nonc3N)c2COc2ccc(F)cc2)cc1	-2%
CN1CCc2c(sc3c2C(=O)NC(/C=C/c2ccco2)N3)C1 (configuration not stated)	-4%
Cc1nn(-c2ccccc2)c(OC(=O)c2cccs2)c1S(=O)(=O)c1ccc([N+](=O)[O-])cc1	-9%
O=S(=O)(c1ccc(Cl)cc1)N1CCN(c2ccc(N3CCOCC3)nn2)CC1	5%
c1ccc(Cn2nnc(CNc3ccccc3)c2-c2c(CNc3ccccc3)nnn2Cc2ccccc2)cc1	-5%
O=C(CSc1nc(O)cc(=O)[nH]1)C1CC1	-4%
CCCN1CCN(CCCNC(=O)Cn2nc(-c3ccc(Cl)cc3)ccc2=O)CC1	1%
CC(C)(C)OC(=O)N/N=C/c1cn(-c2ccccc2)nc1-c1cccnc1	-2%
CC(=O)Nc1ccc(C(=O)OCCCOC(=O)c2ccc(NC(C)=O)cc2)cc1	-15%
CCOC(=O)N1CCN(C(=O)/C=C/c2ccc3c(c2)OCO3)CC1	7%
CCCCNC(=O)c1ccccc1NC(=O)c1ccc2c(c1)OCO2	-16%
O=c1[nH]cnc2c1ncn2C1OCC(O)C(O)C1O (configuration not stated)	7%
CCc1ccc(N(CC)C(=O)c2sc3nc4n(c(=O)c3c2C)CCCC4)cc1	4%
CN(c1ccc(Cl)cc1)c1cc(=O)n(C)c2ccccc12	-3%
O=C(Nc1ccc(N2CCN(C(=O)c3ccccc3)CC2)cc1)c1cc([N+](=O)[O-])ccc1N1CCOCC1	2%
CCc1nc(-c2cc(S(=O)(=O)N3CCN(c4ccc(OC)cc4)CC3)ccc2OC)no1	?
Cc1ccccc1Cn1c(=O)n(CCCCC(=O)NCc2ccc3c(c2)OCO3)c(=O)c2ccccc21	8%
O=C(CSc1nc2ccccc2o1)NCc1ccc2c(c1)OCO2	5%
Nc1nc2c(nc(Br)n2C2OC(CO)C(O)C2O)c(=O)[nH]1 (configuration not stated)	9%
CCc1noc(-c2ccc(N3CCC(C)CC3)c([N+](=O)[O-])c2)n1	2%
NC(=O)C1CCCN(C(=O)c2ccc3c(c2)NC(=O)CS3)C1 (configuration not stated)	-8%

(further entries)
SMILES	VDR inhibitor
N/C(=N\OC(=O)c1ccc(Br)o1)c1cccnc1	-13%
Cc1ccn2cc(-c3cccc(NS(C)(=O)=O)c3)nc2c1	26%
O=C(CNC(=O)C1CCCCC1)Nc1ccccc1Cl	-4%
COCc1c(Br)c(C)[nH]c(=O)c1C#N	-20%
CCCOc1ccc(C(=O)Nc2cc3c(cc2N2CCOCC2)n(C)c(=O)n3C)cc1	-7%
O=C(CSc1nnc(Cc2cccs2)n1-c1ccccc1)NC1CCCCC1	-1%
CSc1nc2ccc(NC(=O)c3nn(C(C)C)c(=O)c4ccccc34)cc2s1	-20%
COc1ccc(OCc2nc3ccccc3n2Cc2ccccc2Cl)cc1	-10%
CCCCN(C)C(=O)CCC(=O)NNc1nc2ccccc2c2nc(C)nn12	-10%&-11%
O=C1/C(=C/c2cccs2)CCc2ccccc21	-30%
C/C(=N/NC(=O)c1ccco1)c1cccnc1	-14%
CNC(=O)/C(C#N)=C/c1c(N2CCN(c3ccc(OC)cc3)CC2)nc2c(C)cccn2c1=O	-14%
CCCNc1c(NS(=O)(=O)c2ccc3c(c2)CCCC3)c(=O)oc2ccccc12	-2%
COc1cccc(SCc2noc(C(=O)NCCC(C)C)c2C(=O)NCCC(C)C)c1	-21%
O=[N+]([O-])c1ccc2c(c1)nc(CO)n2Cc1ccccc1	-9%
O=C(Nc1ccc(F)c(Cl)c1)c1cc(S(=O)(=O)NCc2ccc3c(c2)OCO3)ccc1F	2%
Cc1cc(C(=O)COC(=O)CCC(=O)c2ccc3c(c2)OCCO3)c(C)n1Cc1ccco1	-13%
CCCOc1ccc(C(=O)NCCC(=O)NCCCC(=O)OCC)cc1	11%
COc1ccc(NC(=O)CSc2ncnc3[nH]ncc23)cc1	?
S=C(N/N=C/c1ccc(Br)cc1)N1CCCCC1	-20%
c1csc(-c2noc(COc3ccc4c(c3)CCCC4)n2)c1	7%
Cc1ccc(-c2ccc(CCC(=O)O)n2-c2ccc(C)c(Cl)c2)cc1	?
COc1ccc(OC)c(NC(=O)CCn2cnnn2)c1	6%

Among those listed so far, 13 contain fluorine.
SMILES	VDR inhibitor
O=C(NC1CCCCC1)C1CC(=O)N(CCc2ccc(F)cc2)C1 (configuration not stated)	0%
O=C(c1ccco1)N1CCN(c2cc(N3CCOCC3)c(F)cc2[N+](=O)[O-])CC1	-9%
CCOC(=O)N1CCN(CC(=O)Nc2nnc(C(F)(F)F)s2)CC1	0%
Cc1onc(-c2ccccc2Cl)c1C(=O)Oc1cc(F)cc(F)c1	-6%
O=C(Nc1nc2ccc(S(=O)(=O)N3CCCC3)cc2s1)c1cccc(F)c1	5%
O=S(=O)(c1ccc(Br)cc1)c1nc(-c2cccs2)oc1SCc1ccc(F)cc1	-2%
CCCc1nnc(NC(=O)c2cn(CC)c3cc(N4CCN(C)CC4)c(F)cc3c2=O)s1	7%
O=C(NCc1cccs1)c1cccnc1SCCS(=O)(=O)c1ccc(C(F)(F)F)cn1	-15%
O=C(COc1ccc(F)cc1)Nc1ccc2nc(SCCOc3ccccc3)sc2c1	-6%
COc1ccc(N2C(=O)CS(=O)(=O)C23C(=O)N(Cc2ccc(F)cc2)c2ccc(C)cc23)cc1 (configuration not stated)	18%
Cc1cccc(C)c1NC(=O)c1cc(S(=O)(=O)N2CCCc3ccccc32)ccc1F	4%
CN(C)c1ccc(/C=N/NC(=O)c2nnn(-c3nonc3N)c2COc2ccc(F)cc2)cc1	-2%
O=C(Nc1ccc(F)c(Cl)c1)c1cc(S(=O)(=O)NCc2ccc3c(c2)OCO3)ccc1F	2%

This is a subset. The share of hits here may be higher or lower than overall.
